GLA inh pH 4.5 = qHTS Assay for Inhibitors of Human alpha-Galactosidase at pH 4.5; Alpha-galactosidase A (Homo sapiens), P06280; purified enzyme, 4-MU-alpha-Gal fluorescence, pH 4.5; activity change, negative = inhibition, % at 105 µM; 230,000 tested, under 10 active; inconclusive = small, poorly fitted or top-dose-only inhibition, or a rising curve; inactive = flat fitted curve, though single readings scatter; no compound was filed as active;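 further: 0% = full activity with enzyme and -100% = basal without enzyme; dose as in the result columns while the protocol names 77 µM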
Target sequence (P06280 whole entry, looked up): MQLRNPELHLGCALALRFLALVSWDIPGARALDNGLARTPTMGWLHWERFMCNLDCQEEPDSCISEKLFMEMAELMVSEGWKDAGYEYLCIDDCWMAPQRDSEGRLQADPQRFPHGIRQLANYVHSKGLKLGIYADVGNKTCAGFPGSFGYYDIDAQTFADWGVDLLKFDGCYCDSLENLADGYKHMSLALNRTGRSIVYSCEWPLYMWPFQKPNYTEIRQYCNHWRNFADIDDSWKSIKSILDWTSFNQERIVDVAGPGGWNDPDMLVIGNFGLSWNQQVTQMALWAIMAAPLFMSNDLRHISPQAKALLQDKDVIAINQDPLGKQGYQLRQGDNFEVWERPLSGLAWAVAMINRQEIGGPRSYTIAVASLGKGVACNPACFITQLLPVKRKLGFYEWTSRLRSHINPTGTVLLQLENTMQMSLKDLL
miR-21 reporter = qHTS Assay for Modulators of miRNAs and/orActivators of miR-21; HeLa miR-21 FLuc reporter, luciferase, 48 h; 340,000 tested, under 10 active; Potency, µM (titrated, usually from 38.3 µM), inactives show at the highest dose reporter change, positive = more light; AID 2288, 2010; active = well fitted rising curve with a large enough effect; inconclusive = small, poorly fitted or top-dose-only effect; inactive = no such curve, though single readings can be large or run the other way;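 further: % of control where 0% means no effect; miR-21 action dims this reporter so a rising signal means less miR-21 action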
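Using DMEM plus 10% FBS, HeLa miR-21-FLuc cells are incubated with test compounds (final up to about 40uM) for 48 hours; firefly luciferase signal is then imaged following reagent-mediated lysis.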
The depositor's hits bear a star; ? = inconclusive; . = not tested or not shown; & = joins results of further samples. An excerpt. The share of hits here may be higher or lower than overall.

SMILES	GLA inh pH 4.5	miR-21 reporter
CCCC[N+]12C3CC(C(CC)[C@H]1O)[C@@H]1C(O)C4(C[C@@H]12)c1ccccc1N(C)C34 (stereo partly specified)	-3	.
C[C@@]12CC[C@H]3[C@@H](CC[C@]4(O)C[C@H](O)CC[C@@]34C=O)[C@]1(O)CC[C@@H]2C1=CC(=O)OC1	1	.
CC(C)(O)[C@@H]1C2OC(=O)[C@@H]1[C@]1(O)C[C@H]3O[C@]34C(=O)O[C@H]2[C@]14C	0	.
N[C@H](CCCCCP(=O)(O)O)C(=O)O	0&-5&2	.
Cc1cccc([C@H](C)c2cnc[nH]2)c1C	-4	.
CCCc1cc2c(n1Cc1ccco1)C(C)C1CN(C(=O)c3ccccc3)C(C)(C(=O)OC)C21 (stereo unspecified)	-1	.
O=C1C=C2C=C[C@H]3C[C@@]2(O1)[C@H]1CCCCN31	-3	.
Cn1cc(C(=O)C(=O)N[C@H]2CN3CCC2CC3)c2ccccc21	-20	.
COC(=O)[C@]1(C)CC[C@@]2(C)CC[C@@]3(C)C4=CC=C5C(=CC(=O)C(O)=C5C)[C@@]4(C)CC[C@@]3(C)C2C1 (stereo partly specified)	-9	.
CC(CO)NC(=O)C1C=C2c3cccc4[nH]cc(c34)C[C@H]2N(C)C1 (stereo partly specified)	4	.
O=C1CC[C@]2(O)[C@H]3Cc4ccc(O)c5c4[C@@]2(CCN3CC2CC2)[C@@H]1O5	0	.
O=C1CC[C@]2(O)C3Cc4ccc(O)c5c4C2(CCN3CC2CC2)C1O5 (stereo partly specified)	-15	.
CN1CC[C@@]2(c3cccc(O)c3)Cc3nc4ccccc4cc3C[C@H]2C1	-6	.
CN1[C@H]2CC(=O)C[C@@H]1[C@@H](O)C2	-3	.
CCCCCCCCc1[se]c2ccccc2c1Br	-2	.
CCCCC/C=C\C/C=C\C/C=C\C/C=C\CCCC(=O)NC(C)C(=O)O (stereo unspecified)	-18	.
CC(=O)OC1C[C@@]2(C)C(c3ccoc3)C[C@H]3O[C@@]32[C@@]2(C)C(=O)C(O)=C3C(C)(C)C(=O)C=C[C@]3(C)C12 (stereo partly specified)	-9	.
C[C@@]12CC[C@H](O)C[C@@H]1CC[C@H]1[C@@H]2C[C@@H](O)[C@]2(C)[C@@H](C3=CC(=O)OC3)CC[C@]12O	-3	.
CC(=O)OC[C@H](N)C(=O)c1ccccc1	-9	.
CCCCC/C=C\C/C=C\CCCCCCCCCC(=O)NCCO	-3	.

Brought forward from above: three compounds; new compounds follow.
SMILES	GLA inh pH 4.5	miR-21 reporter
C[C@@]12CC[C@H](O)C[C@@H]1CC[C@H]1[C@@H]2C[C@@H](O)[C@]2(C)[C@@H](C3=CC(=O)OC3)CC[C@]12O	-3	.
CC(=O)OC[C@H](N)C(=O)c1ccccc1	-9	.
CCCCC/C=C\C/C=C\CCCCCCCCCC(=O)NCCO	-3	.
COCC#CCN1CCCCC1c1cccnc1 (stereo unspecified)	-5	.
C[C@@H]1O[C@@H](O[C@H]2CC[C@]3(C=O)C4CC[C@]5(C)[C@@H](C6=CC(=O)OC6)CC[C@]5(O)[C@@H]4CC[C@]3(O)C2)[C@H](O)[C@H](O)[C@H]1O (stereo partly specified)	-6	.
Oc1cc2c(cc1O)[C@H]1c3ccccc3CNC1CC2 (stereo partly specified)	-2	.
COc1c2c(cc3c1OCO3)C13C=CC(OC)CC1N(C2)CC3O (stereo unspecified)	10	.
C[C@@H]1O[C@H](C[N+](C)(C)C)CS1	4	.
CC[C@H](Oc1ccc(Cl)cc1)C(=O)OC1C[C@H]2CC[C@@H](C1)N2C (stereo partly specified)	-5	.
CC(C)(c1ccc(OC[C@@H]2CO2)cc1)c1ccc(OC[C@H]2CO2)cc1	-12	.
c1ccc2c(c1)OC[C@@H](C1=NCCN1)O2	2&5	.
CNC1[C@@H](O)C(OC2C(N)C[C@H](N)[C@@H](O[C@@H]3OC(C(C)O)C(O)C(O)C3N)C2O)OC[C@]1(C)O (stereo partly specified)	3	.
O=CN1CC2CC(C1)c1cccc(=O)n1C2 (stereo unspecified)	-2	.
CN1CCC23CCCC[C@H]2C1Cc1ccc(O)cc13 (stereo partly specified)	-4	.
CC(=O)OCC(=O)[C@@H]1CC[C@H]2[C@H]3CC[C@H]4C[C@@H](O)CC[C@]4(C)[C@@H]3C(=O)C[C@@]12C	4	.
CCN1C[C@@]2(OC(=O)c3ccccc3NC(C)=O)CCC(OC)[C@@]34C5CC6C(OC)C[C@@](O)(C(CC23)[C@@H]14)C5(O)C6OC (stereo partly specified)	-2	.
CC1/C=C/C=C/CC/C=C/C=C/C=C/C=C/C(OC2OC(C)C(O)C(N)C2O)CC2O[C@](O)(CC(O)C(O)CCC(O)CC(O)CC(O)CC(=O)OC(C)C(C)C1O)CC(O)C2C(=O)O (stereo partly specified)	-3	.
CCCCC/C=C\C[C@@H](/C=C/C=C\C/C=C\CCCC(=O)O)OO	2	.
C=C(C)C1CCC(C)=CC1c1c(O)cc(O)cc1CCCCC (stereo unspecified)	-14	.
Cc1c(C(=O)c2ccc3ccccc3c2)c2cccc3c2n1[C@H](CN1CCOCC1)CO3	-22	.
C[C@]12CC[C@H](OS(=O)(=O)O)CC1=CCC1C2CC[C@]2(C)C(=O)CC[C@@H]12 (stereo partly specified)	-5	.
COC(=O)C12CC3=CC(CC3=O)Cc3ccccc3[C@@H]1CNC2=O (stereo partly specified)	-7	.
CC(C)(O)C(Cl)(Cl)Cl	-6	.

Taken from above.
C[C@@H]1O[C@H](C[N+](C)(C)C)CS1 – GLA inh pH 4.5 = 4
Oc1cc2c(cc1O)[C@H]1c3ccccc3CNC1CC2 (stereo partly specified) – GLA inh pH 4.5 = -2

Other compounds.
SMILES	GLA inh pH 4.5	miR-21 reporter
CC(N)[C@@H](O)c1ccccc1 (stereo partly specified)	-6	.
C[C@]12CC[C@@H]3[C@@H](CCC4=CC(=O)CC[C@@H]43)[C@@H]1CC[C@@H]2OC(=O)CCc1ccccc1	-7	.
O=C(O)COc1cc(Cl)c(Cl)cc1Cl	2	.
CC(C)=CC1C(C(=O)OCc2cccc(Oc3ccccc3)c2)C1(C)C (stereo unspecified)	-8	.
C=C1C([C@@]2(C)C(OC(C)=O)CC(=O)O[C@@](C)(COC(C)=O)C2CC(=O)OC)C(OC=O)C(OC(=O)C(OC(C)=O)C(C)CC)[C@]2(C)C(c3ccoc3)CC(=O)C12O (stereo partly specified)	-4	.
COc1cc2c(cc1OC)[C@@H]1C(=O)c3ccc(O)c(CC=C(C)C)c3OC1CO2 (stereo partly specified)	2	.
COC(=O)C12CC3=CCC4C(=O)N(c5ccccc5)C(=O)C4C3Cc3ccccc3[C@@H]1CNC2=O (stereo partly specified)	-5	.
NC1CC1c1ccccc1 (stereo unspecified)	-1	.
CC(C)C1C(=O)N2CCCC2[C@]2(O)O[C@@](NC(=O)[C@@H]3C=C4c5cccc6[nH]cc(c56)C[C@H]4N(C)C3)(C(C)C)C(=O)N12 (stereo partly specified)	-1	.
CCCCC/C=C\C/C=C\C/C=C\C/C=C\CCCC(=O)Nc1ccc(O)cc1C	-7	.
O=C(CCCN1CCC2(CC1)C(=O)N(Cc1cccc(F)c1)CN2c1ccccc1)c1ccc(F)cc1	-5	.
CC(C)[C@@H]1CN[C@H](C(=O)O)[C@@H]1CC(=O)O	-4	.
CN(C)C1C(=O)C(C(N)=O)=C(O)[C@@]2(O)C(=O)C3=C(O)c4c(O)cccc4[C@@](C)(O)C3CC12 (stereo partly specified)	-16	.
COc1ccc(C(=O)OC2C[C@H]3CC[C@@H](C2)N3C)cc1OC (stereo partly specified)	-4	.
C=C/C(=C/C(=O)C[C@H](C)C[C@@H](C)CC[C@H](O)[C@H](C)C(=O)C[C@@H](O)[C@H](C)[C@@H](C)OC(=O)C[C@@H](O)C1=C(C)C(=O)OC1=O)CC	-8	.
COP(N)(=O)SC (stereo unspecified)	1	.
C[C@@H]1CC[C@H]2[C@@H](C)C(=O)O[C@@H]3OC4(C)CC[C@@H]1[C@]32OO4	-12	.
CCCC/C=C/[C@@H](NP(=O)(c1ccccc1)c1ccccc1)c1ccccc1OC	-17	.
COc1ccccc1-c1[se]c2ccccc2c1I	-6	.
CC1C(=O)OC2C1CC[C@@]1(C)C=CC(=O)[C@@]3(C)O[C@@]213 (stereo partly specified)	3	.
COc1ccc2c(c1O)-c1cccc3c1C(C2)N(C)CC3 (stereo unspecified)	-3	.
C=C(C)CN1CC[C@@]23c4c5ccc(O)c4O[C@H]2c2[nH]c4ccccc4c2C[C@]3(O)[C@@H]1C5	-16	.
CC/C=C\C/C=C\C/C=C\C/C=C\C/C=C\CCCC(=O)NCCc1ccc(O)c(O)c1	0	.
CCCCCCCCCCCCCC(=O)O[C@@H]1[C@@H](C)[C@@]2(O)[C@@H](C=C(CO)C[C@]3(O)C(=O)C(C)=C[C@@H]23)[C@@H]2C(C)(C)[C@]12OC(C)=O	-14	.
COP(=S)(OC)Oc1ccc([N+](=O)[O-])cc1	0	.
COc1cc([C@@H]2c3cc4c(cc3[C@H](O)C3COC(=O)[C@@H]32)OCO4)cc(OC)c1OC (stereo partly specified)	-4	.
CNC[C@H](O)c1ccc(O)c(OC)c1	7	.
CC(C)C(O)(C(=O)OC[C@@H]1CC[N+]2([O-])CCCC12)C(C)O (stereo partly specified)	-9	.
Cc1ccccc1-n1nc(C)c2c1NC(=O)CSC2c1ccc(N(C)C)cc1 (stereo unspecified)	.	11%
CN(C)c1ccc(NC(=O)c2sc3nc4c(cc3c2N)N2CCC4CC2)cc1	.	-33%
O=c1c2ccccc2nc(/C=C\c2ccc(F)cc2)n1-c1ccccc1F	.	14%
CCN(CC)C(=O)c1ccc(NC(=O)CCn2nc(-c3ccc(Cl)cc3)c3ccccc3c2=O)cc1	.	?
CC1Cc2cc(S(=O)(=O)N(Cc3ccccc3)C(C)C)ccc2N1C(=O)C1CCC1 (stereo unspecified)	.	?
O=C(Nc1ccc2c(c1)OCCO2)c1cccn(Cc2ccccc2)c1=O	.	-8%
O=C(Nc1ccc(Cl)cc1C(=O)c1ccccc1)c1ccccc1Br	.	-1%
Cc1ccc(NC(=O)c2cccn(Cc3ccccc3C)c2=O)c(C)c1	.	-2%
COc1ccc(NC(=O)CCc2nc(C3=CCN(Cc4cccc(Cl)c4)CC3)no2)cc1OC	.	-2%
O=c1c2ccccc2nc(/C=C/c2ccccc2O)n1-c1ccccc1O	.	25%
O=C(Nc1ccccc1C(F)(F)F)c1cccn(Cc2ccccc2)c1=O	.	0%
CCc1ccc(-n2nc(C)c3c2NC(=O)CSC3c2ccc(C(=O)OC)cc2)cc1 (stereo unspecified)	.	7%
Cc1ccc(-c2c(C)n3c4c(=O)n(C)c(=O)n(C)c4nc3n2CCO)cc1	.	?
O=C1CN=C(c2ccccc2Cl)c2cc(Cl)ccc2N1Cc1cccc(Cl)c1	.	19%
O=C(Nc1ccon1)c1cccn(Cc2cccc([N+](=O)[O-])c2)c1=O	.	1%
COc1ccc(C(=O)NCCn2cc(SCc3ccc(C(F)(F)F)cc3)c3ccccc32)cc1OC	.	?
O=C(Nc1ccc2c(c1)OCO2)c1cccn(Cc2ccc(F)cc2)c1=O	.	-1%
O=C(Nc1ccc2c(c1)OCO2)c1cccn(Cc2cccc([N+](=O)[O-])c2)c1=O	.	0%
COc1ccc(-c2nc(CN3C(=O)CN=C(c4ccccc4)c4ccccc43)c(C)o2)cc1	.	?
O=C(Nc1ccon1)c1cccn(Cc2ccccc2)c1=O	.	-4%
CC(=O)NS(=O)(=O)c1ccc(NC(=O)c2cccn(Cc3ccc(Cl)cc3)c2=O)cc1	.	-10%
Cc1cc(OCC(=O)N2CCN(CCc3ccncc3)CC2)ccc1Cl	.	-6%
O=C(Nc1ccc(Br)cc1)c1ccc(F)c(S(=O)(=O)N2CCCc3ccccc32)c1	.	?
Cc1ccccc1-c1nc(CS(=O)CC(=O)N2CCN(c3cc(Cl)ccc3C)CC2)c(C)o1 (stereo unspecified)	.	?
CC(C)c1ccc(NC(=O)CN2C(=O)CN=C(c3ccccc3)c3ccccc32)cc1	.	-3%
Cc1ccc(C)c(S(=O)(=O)c2nnn3c2nc(N2CCN(C)CC2)c2sccc23)c1	.	?
COc1cc(CN2CCc3nc(N4CCN(c5ccccn5)CC4)ncc3C2)cc(OC)c1OC	.	?
CN(C)S(=O)(=O)c1ccc(C(=O)NCCSc2c(-c3ccccc3)[nH]c3ccccc23)cc1	.	?
COc1ccc(-c2nc(CN3C(=O)CN=C(c4ccccc4)c4cc(Cl)ccc43)c(C)o2)cc1	.	8%
COc1cccc(C(=O)Nc2ccc3nc(SCC(=O)N(C)c4ccccc4)sc3c2)c1	.	?
CCC(=O)C1=C(c2cccc([N+](=O)[O-])c2)N(C(=O)CC)n2c(nnc2C2CCCCC2)S1	.	?
Cc1ccccc1CN1C(=O)CN=C(c2ccccc2)c2cc(Cl)ccc21	.	26%
COc1ccc(CN2CCN(C(=O)COc3ccccc3)CC2)c(OC)c1	.	?

An excerpt from above in order of formula weight, highest first.
SMILES	GLA inh pH 4.5	miR-21 reporter
COc1ccc(-c2nc(CN3C(=O)CN=C(c4ccccc4)c4cc(Cl)ccc43)c(C)o2)cc1	.	8%
COc1cccc(C(=O)Nc2ccc3nc(SCC(=O)N(C)c4ccccc4)sc3c2)c1	.	?
Cc1ccc(C)c(S(=O)(=O)c2nnn3c2nc(N2CCN(C)CC2)c2sccc23)c1	.	?
COc1ccc(-c2nc(CN3C(=O)CN=C(c4ccccc4)c4ccccc43)c(C)o2)cc1	.	?
O=C(Nc1ccc2c(c1)OCO2)c1cccn(Cc2ccc(F)cc2)c1=O	.	-1%

From PubChem
